VDR inh = vitamin D3 receptor (human) inhibition; hit rate 0.93% among 400,000; VDR-SRC2-3 peptide fluorescence polarization, 2 h; Potency, µM, inactives show max response, negative = inhibition, actives largely listed as inhibitors; AID 504847; P11473; active means well fitted inhibition curve with a large enough effect; inconclusive means small, poorly fitted or top-dose-only effect, or another doubt; inactive means no such curve, though single readings can be large or run the other way; further: series mostly up to about 120 µM
Target sequence (P11473 whole entry, looked up): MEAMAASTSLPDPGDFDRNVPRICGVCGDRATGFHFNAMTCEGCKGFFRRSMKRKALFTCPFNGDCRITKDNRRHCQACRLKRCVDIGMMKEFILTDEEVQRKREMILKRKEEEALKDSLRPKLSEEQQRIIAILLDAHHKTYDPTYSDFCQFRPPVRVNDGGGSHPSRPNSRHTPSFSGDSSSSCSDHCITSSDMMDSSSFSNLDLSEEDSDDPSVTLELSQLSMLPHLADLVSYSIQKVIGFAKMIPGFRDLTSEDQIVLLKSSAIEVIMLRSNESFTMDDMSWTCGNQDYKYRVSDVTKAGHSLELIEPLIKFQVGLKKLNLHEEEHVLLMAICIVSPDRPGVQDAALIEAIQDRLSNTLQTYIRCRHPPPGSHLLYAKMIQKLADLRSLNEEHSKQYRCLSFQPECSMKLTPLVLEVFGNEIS
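The screen uses fluorescence polarization to detect compounds that interfere with recruitment of the SRC2-3 coactivator peptide to VDR; plates are read after 2 h at room temperature.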
Numbers without * were called inactive; ? = inconclusive; & = joins results of further samples; [ ] = dose if it differs, or a comment. On the % scale 0 is the no-effect control and ±100 the full control effect; potency means the concentration at half of the fitted maximal effect.

SMILES	VDR inh
Cn1nc(C(=O)Nc2cccc(C(F)(F)F)c2)ccc1=O	0.6%
CC1(CCc2ccccc2)NC(=O)N(CC(=O)Nc2ccc(OC(F)F)cc2)C1=O (centres undefined)	-0.6%
CN1C(=O)Cc2cc(S(=O)(=O)NCc3c(F)cccc3Cl)ccc21	-3.0%
CCOc1ccc(N2CC(C(=O)NCCN3C(=O)S/C(=C\c4ccc(OC)c(OC)c4)C3=O)CC2=O)cc1 (centres undefined)	11.3%
O=C(/C=C/c1ccc2c(c1)OCO2)NCC1CCCO1 (centres undefined)	-16.6%
Nc1c(Cl)nc(-c2ccccc2)nc1Cl	-17.5%
Cc1ccccc1OC(C)C(=O)NCCC1=CCCCC1 (centres undefined)	-2.5%
Cn1ncc2c(=O)n(/N=C/c3ccccc3)cnc21	-6.5%
Cc1ccc(-n2nc3ccc(NC(=O)c4oc5ccccc5c4C)cc3n2)cc1	-10.8%
CC1Nc2ccccc2C(=O)N1NC(=O)c1ccc(Br)cc1 (centres undefined)	4.0%
O=C1NC(=O)C2C1C(c1ccccc1)N1C3C(=O)NC(=O)C3C(c3ccccc3)N21 (centres undefined)	-8.9%
Cc1ccc(N2C(=O)c3cccc4c(N5CCN(C)CC5)ccc(c34)C2=O)c2cccnc12	3.0%
CC(=O)CSc1ncnc2sc3c(c12)CCC(C)C3 (centres undefined)	-2.4%
CC(C)c1nnc(NC(=O)c2ccc(S(=O)(=O)N3CCOCC3)cc2)s1	-6.6%
COc1ccccc1C(=O)Nc1ccc(OCc2cc(=O)n3cccc(C)c3n2)cc1	13.3%
CCOC(=O)Cc1csc(N/N=C/c2ccc(C(F)(F)F)cc2)n1	-9.2%
CCc1nc2cccnc2n1-c1ccc(CC(=O)Nc2ccc(C)cc2)cc1	10.8%
CCOC(=O)C1CCCN(C(=O)C(C)(C)Oc2ccc(Cl)cc2)C1 (centres undefined)	-2.1%
Cc1c(Cl)cccc1NC(=O)CSc1nc(=O)[nH]c2c1CCC2	7.7%
COc1cc(OCc2ccccc2)c2c(CCC(=O)O)cc(=O)oc2c1	-12.0%
CC(NC(=O)NNC(=O)c1ccncc1)(C(F)(F)F)C(F)(F)F	5.0%
Cc1ccc(CNC(=O)C(=O)NCC2OCCN2C(=O)c2ccc(Cl)cc2)cc1 (centres undefined)	-5.7%
O=C(c1ccccc1)c1sc(N2CCCCCC2)nc1-c1ccccc1	10.9%
CC(=O)c1cccc(NC(=O)C=C(C)C)c1	10.0%
O=C(CSc1nc2ccccc2c(=O)n1-c1ccccc1Cl)NCC1CCCO1 (centres undefined)	-15.7%
CCOC(=O)N1CCN(c2nc(-c3cccs3)nc3ccccc23)CC1	2.2%
Cc1nnc(C)n1/N=C/c1ccccc1	8.1%
Cc1ccccc1NC(=O)CN1C(=O)c2ccccc2C1=O	-12.2%
N#C/C(=N\Nc1ccc(Cl)cc1)C(N)=S	-28.9%
Cc1ccc(/C=N/NC(=O)CN2CCN(Cc3ccccc3)CC2)s1	-19.7%
COc1cccc2cc(-c3cc(=O)oc4cc(C)c(OCC(C)=O)cc34)oc12	-17.1%
O=C(NCCC1=CCCCC1)C1CCN(S(=O)(=O)c2cccc(C(F)(F)F)c2)CC1	2.2%
CC(O)(Cc1cccnc1)c1cccs1 (centres undefined)	-1.5%
O=C(CC(=O)N/N=C\c1c(Cl)cccc1Cl)NCc1ccccc1	-3.8%
O=C(Nc1cccc(Cl)c1)c1ccc(=O)[nH]n1	9.8%
CCN(CC)S(=O)(=O)c1ccc2c(c1)c(=O)c(C(=O)NCCc1ccc(OC)c(OC)c1)cn2C	2.2%&-31.7%
CC(C)(C)C1=CC(=O)C(=O)C(C(C)(C)C)=C1	?
CC(c1ccccc1)N1C(=O)c2ccccc2C1(O)Cc1ccccc1 (centres undefined)	-1.2%
Cc1[nH]nc2c1C(c1cccc(OC(=O)N3CCOCC3)c1)C(C#N)=C(N)O2 (centres undefined)	-20.2%
COc1ncc2nc(-c3cccs3)c(=O)n(CCC#N)c2n1	-7.0%
CC(C)(C)c1ccc(OCc2cc(=O)n3c4c(sc3n2)CCCC4)cc1	-1.2%
CCOC(=O)c1cccc(NC(=O)CSc2cc(=O)n(C)c3ccccc23)c1	4.8%
CCOC(=O)[C@@H](C)N(Cc1ccc(OC)cc1)S(=O)(=O)N(Cc1ccccc1)[C@H](C(=O)OC)C(C)C	-12.3%
Cc1cc2oc(C(=O)N(Cc3ccco3)Cc3ccccc3Cl)c(C)c2cc1C	-2.8%
Cn1c(=O)c2c(nc(SCC(=O)Nc3ccc(F)c(F)c3)n2Cc2ccccc2F)n(C)c1=O	7.8%
COCCCNC(=O)C1CCC(CNS(=O)(=O)c2ccc(Cl)cc2)CC1 (centres undefined)	-16.1%
CN(NC(=O)Nc1ccc(Cl)cc1)c1ncc(C(F)(F)F)cc1Cl	-3.4%
O=c1[nH][nH]c(-c2ccccc2O)c1C(C[N+](=O)[O-])c1ccc(Cl)cc1Cl (centres undefined)	1.8%
COc1ccc(OC)c(NC(=O)CSc2nnc(C3CCCCC3)n2-c2ccccc2)c1	-13.7%
COc1ccc(NS(=O)(=O)c2cccc(C(=O)N/N=C/c3cn(-c4ccccc4)nc3-c3ccc(OC)cc3)c2)cc1	20.1%
COc1cc(NC(=O)c2noc3c2CCCC3)c(OC)cc1Cl	-6.9%
Cc1cc(N2CCN(C)CC2)nc2ccc(NC(=O)Nc3ccc(F)cc3F)cc12	4.4%
CSc1ncc2ncn(C3OC(CO)C(O)C3O)c2n1 (centres undefined)	13.5%
O=C1NN(c2ccccc2)C(=O)/C1=C\c1ccccc1	?
Cn1c(N)c(C(=O)COC(=O)COc2ccc(Br)cc2)c(=O)n(C)c1=O	-5.2%
Cc1ccc(C(=O)/C=C/C(=O)c2ccc(C)cc2)cc1	?
Cc1c(C)c2ccc(OCC(=O)NC(Cc3c[nH]c4ccc(O)cc34)C(=O)O)c(C)c2oc1=O (centres undefined)	-11.8%
CC1Cc2ccccc2N1C(=O)CN1CCC(C(N)=O)CC1 (centres undefined)	-6.8%
C[C@H](OC(=O)NCc1ccc(C(F)(F)F)cc1)[C@@H]1O[C@@]2(C)CCC[C@@H]1O2	6.8%
O=C(Cn1cc(C(F)(F)F)cc(Cl)c1=O)NCc1ccc(Cl)cc1Cl	11.2%
(listing goes on)
SMILES	VDR inh
CCSc1nnc(NC(=O)CSc2nc3c(cc2C#N)CCCC3)s1	-10.9%
CC(C)CCNC(=O)C(c1ccco1)N(CC1CCCO1)C(=O)Cn1nnc2ccccc21 (centres undefined)	8.1%
Cc1cc(N2CCN(c3ccccc3)CC2)nc(-c2ccccc2)n1	0.7%
COc1cccc(NC(=O)N2CCCC2C(=O)NCC(C)C)c1 (centres undefined)	13.0%
Cc1ccc(Cn2c(SCC(=O)NCc3ccccc3)nc3ccsc3c2=O)cc1	2.1%
O=C(Cn1c(=O)oc2ccccc21)Nc1cccc(Cl)c1	-4.3%
CSc1nsc(SCC(=O)Nc2ccc(OC(C)=O)cc2)n1	-1.0%
CCCc1cc(C(=O)Nc2cc(Cl)ccc2O)no1	10.2%
O=C(c1cccc(NS(=O)(=O)c2cccc(C(F)(F)F)c2)c1)N1CCOCC1	-30.0%
C=CCc1c(C)[nH]c(=O)[nH]c1=O	8.2%
Cc1ccc(S(=O)(=O)N(C)CC(=O)Nc2ccccc2)cc1	-4.6%
CCOC(=O)c1sc2ncn(CC(=O)Nc3cccc(C)c3)c(=O)c2c1C	-9.7%
CC/C(=N\NC(=O)c1cccnc1)c1ccc2c(c1)OCCO2	-7.6%
CCn1cc(/C=C(\NC(=O)c2ccc(OC)c(OC)c2)C(=O)NCCCN2CCOCC2)c2ccccc21	-1.3%
C[C@]12C=CC(=O)C=C1CCC1C3CC[C@](O)(C(=O)CO)[C@@]3(C)CC3OC312 (some centres undefined)	-9.7%
C/C(=N\NC(=O)c1c(C)nc2ccccn12)c1ccco1	-11.7%
O=C(c1cnc(-c2ccc(Cl)cc2)s1)c1ccc(Cl)cc1Cl	30.6%[activator]
Cn1c(=O)c2c(nc(CN3CCC(C(N)=O)CC3)n2CCCc2ccccc2)n(C)c1=O	5.3%
C[C@H]1CN=C(N(C)C)N1CCCCc1ccccc1	-28.4%
CC(C)[C@H](NC(=O)c1nn(Cc2ccccc2)c(=O)c2ccccc12)C(=O)O	0.9%
Cc1ccccc1C(=O)N1CCN(c2ccc(NC(=O)c3cccs3)cc2)CC1	-2.6%
CC(=O)N(C1=C(Cl)C(=O)c2ccccc2C1=O)C1CCCCC1	14.1µM*
C=CCn1c(SC)nccc1=O	-15.7%
Cc1nc(NC(=O)/C=C/c2ccccc2)sc1C(=O)N(C)C	-9.2%
CC(=O)c1cccc(S(=O)(=O)NC2CC2)c1	-4.2%
O=C(COc1ccc(Cl)cc1Br)N1CCN(c2ncccn2)CC1	5.6%
CC(C)CC(CC(C)C)=NNC(=O)c1ccc(CSc2nncn2C)cc1	-3.3%
O=C1CCC(C(=O)N2CCSCC2)CN1Cc1cccc(C(F)(F)F)c1 (centres undefined)	-13.5%
COc1ccc(CN(CCC(C)C)S(=O)(=O)c2ccccc2Br)cc1	3.7%
CCN1CCN(c2cc(C)c3cc(NC(=S)N4CC(C)CC(C)C4)ccc3n2)CC1 (centres undefined)	10.0%
CCCn1nc(NS(=O)(=O)c2ccccc2[N+](=O)[O-])c2cc3ccccc3nc21	-19.9%
CCOC(=O)C1=C(NC(=S)NC(=O)c2ccccc2)c2ccccc2CC1(C)CC (centres undefined)	-13.1%
COc1ccc(N2CCN(C(=O)CCCn3c(=O)c4cccn4c4cccnc43)CC2)cc1	4.6%
COc1ccc(Cn2c(CCC(=O)Nc3ccc(Br)c(C)c3)nc3cccnc32)cc1	-17.6%
COc1ccc(C(=O)N2CCC(C(=O)N3CCN(c4ccc(OC)cc4)CC3)CC2)cc1	-23.5%
COc1ccc(S(=O)(=O)N2CCOC23CCN(C(=O)c2c(F)cccc2Cl)CC3)cc1	-7.7%
CC(=O)COc1cc2c(-c3cc4ccccc4o3)cc(=O)oc2cc1C	-7.1%
COCCn1c(SCC(=O)Nc2ccc(S(=O)(=O)N(C)C)cc2)nc2ccccc21	9.3%
NC(=O)c1csc(-c2ccncc2)n1	4.6%
CC1CCCCN1C(=O)c1cnn2c(C(F)(F)F)cc(-c3ccco3)nc12 (centres undefined)	-0.6%
O=C(O)C(C(O)c1ccc([N+](=O)[O-])cc1)[n+]1ccccc1 (centres undefined)	-25.3%
CCOc1ccc(/C=C/C(=O)c2c(O)c3ccccc3oc2=O)cc1	8.91µM*
CCC(c1nnnn1Cc1ccccc1)N1CCN(c2ccccc2)CC1 (centres undefined)	10.7%
CC1CN(C(=O)c2cccn(Cc3c(Cl)cccc3Cl)c2=O)CC(C)O1 (centres undefined)	-17.1%
COc1nc(Nc2ccc(-c3nc4ccccc4o3)cc2)nc(N2CCOCC2)n1	3.1%
COC(=O)c1ccccc1-n1c(C)nc(=O)c(-c2ccccc2)c1C	-4.4%
COCOc1ccc(C=O)cc1OCOC	-0.6%
Cc1ccc(S(=O)(=O)CCC(=O)Nc2ccccc2Cl)cc1	-14.9%
COc1ccc(N(CC(=O)N2CCN(c3cccc(C)c3C)CC2)S(=O)(=O)c2c(C)noc2C)cc1	-3.7%&2.2%
Cc1ccc(S(=O)(=O)N2CCc3cc(C(=O)Nc4c(C)cccc4C(C)C)ccc32)cc1	7.2%
O=C(COC(=O)CCCNC(=O)c1ccc(Cl)cc1)Nc1ccc(Br)cc1	-9.8%
COc1cccc(OC)c1OCCOCCN1CCN(C)CC1	-3.5%
CC12CC3CC(C)(C1)CC(Nc1nc(N4CCOCC4)nc4ccccc14)(C3)C2	2.0%
CCC(=O)Oc1ccc(-c2nc(-c3cccnc3)no2)cc1	-7.8%
CS(=O)(=O)Cc1ccc(C(=O)NC2CCN(Cc3ccccc3)C2)cc1 (centres undefined)	-6.2%
Cc1oc(-c2ccccc2F)nc1CS(=O)(=O)CC(=O)N1CCN(c2cccc(C(F)(F)F)c2)CC1	3.3%
COc1cccc(C(=O)Nc2c(C(=O)NC(C)(C)C)oc3ccccc23)c1	4.4%
Fc1ccccc1C1c2cccn2CCN1C(=S)Nc1ccc(Br)cc1 (centres undefined)	0.6%
Cc1ccc(NS(=O)(=O)c2cc3[nH]c(=O)c(=O)[nH]c3cc2C)cc1Cl	-3.3%
CC(=O)Nc1ccc(NC(=O)CN(c2cccc(C(C)=O)c2)S(C)(=O)=O)cc1	9.4%
The list continues:
SMILES	VDR inh
CCc1nnc(NC(=O)c2ccc(S(=O)(=O)N(CCOC)CCOC)cc2)s1	-1.9%
COCCCNC(=O)CNC(=S)N(Cc1ccc(F)cc1)C1CCCCC1	0.2%
O=C(CSc1n[nH]c(-c2ccc(Cl)cc2Cl)n1)Nc1ccccn1	3.5%
CCOC(=O)c1ccccc1NC(=O)Cn1nnc2sc3c(c2c1=O)CCCC3	5.6%

Gathered by group: those above with a thiophene ring, fused or not.
SMILES	VDR inh
CC(=O)CSc1ncnc2sc3c(c12)CCC(C)C3 (centres undefined)	-2.4%
CCOC(=O)N1CCN(c2nc(-c3cccs3)nc3ccccc23)CC1	2.2%
Cc1ccc(/C=N/NC(=O)CN2CCN(Cc3ccccc3)CC2)s1	-19.7%
CC(O)(Cc1cccnc1)c1cccs1 (centres undefined)	-1.5%
COc1ncc2nc(-c3cccs3)c(=O)n(CCC#N)c2n1	-7.0%
Cc1ccc(Cn2c(SCC(=O)NCc3ccccc3)nc3ccsc3c2=O)cc1	2.1%
CCOC(=O)c1sc2ncn(CC(=O)Nc3cccc(C)c3)c(=O)c2c1C	-9.7%
Cc1ccccc1C(=O)N1CCN(c2ccc(NC(=O)c3cccs3)cc2)CC1	-2.6%
CCOC(=O)c1ccccc1NC(=O)Cn1nnc2sc3c(c2c1=O)CCCC3	5.6%

Source: PubChem

This is a subset; the hit share may differ from the screen's.
